Bioassay records from PubChem.
Env fusion inh: blocks HIV Env-driven cell-cell fusion; 360,000 tested, 1.1% active; HeLa-JRFL Env/CEM21 cell fusion, luciferase; inhibition, % at 12.3 µM;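 active means mean replicate inhibition score of at least 50 and every replicate individually at or above 50; inconclusive means only one of the two criteria met; inactive means mean below 50 and not all replicates reaching 50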;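 further: 0% = plate neutral controls and 100% = maraviroc near 300 nM; one replicate is shown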
Rce1 inhib: yeast Ras-converting enzyme inhibition; calls only; 290,000 tested, 0.27% active; yeast membranes, quenched prenylated peptide cleavage fluorescence; AID 2563; Q03530;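 active means fall in fluorescence gain of 50% or more versus controls, with final raw signal at or below 3038400; inconclusive means same 50% fall but final raw signal above 3038400; inactive means fall in fluorescence gain under 50%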;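 further: plate controls were neutral control wells for no effect and wells lacking membranes for full effect; tested at 10 µM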
MT1-MMP act inh: MT1-MMP (human) activation inhibition; P50281; HT1080 RFP-PRO-GFP cells, GFP/RFP ratio fluorescence, overnight; percent of plate control window, DMSO zero; GFP/RFP ratio change, % at 20 µM; 360,000 tested, 0.061% active; AID 651647;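 active means GFP/RFP ratio change of at least 30% with cell ATP level not reduced by more than half and red fluorescence within 50% of control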; further: strong numbers were not always called active
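Assay system – RFP-PRO-GFP reporter HT1080 cells · Compound dosing – single dose of 20 µM compound, 1% DMSO final · Incubation – overnight compound exposure at 37 °C · Measure – GFP/RFP fluorescence ratio · Benchmarks – DMSO wells and RFP-L50D-GFP cells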
UUG fidelity: alters start codon recognition fidelity in yeast; S. cerevisiae UUG-firefly luciferase reporter, luminescence/redox ratio; activity score, % at 18.7 µM; 350,000 tested, 0.13% active;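 active means replicate mean at a twofold rise or more, about +100% in these data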;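 further: firefly luciferase made from a UUG start codon reports start codon fidelity; reporter light over untreated wells divided by growth signal over untreated wells; some hits fall short of that in this replicate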
eIF4H inh: inhibitors of RNA binding by human eIF4H; Q15056; inhibition, % at 35 µM; 290,000 tested, 0.94% active; eIF4H fluorescence polarization binding assay;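 active means 50% or more with normal probe brightness, or confirmed in later tests; inconclusive means above 50% with abnormal brightness, or retests that disagree; inactive means below 50% or failed in later tests; about a fifth of its hits are not listed in these tables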;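 further: calls also rest on retests at 20 µM and on dose response follow-up; 0% = protein and probe with vehicle and 100% = probe without protein; strong numbers were not always called active; many hits fall short of the cut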
CSC inhib: cancer stem cell inhibition. 300,000 tested, 1.1% active. inhibition, % at 7.5 µM. cancer stem cell-like cells viability, luminescence;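 active means mean at 75% or more and at least half the replicates too; inconclusive means mean and replicates disagree; tested in HMLE shEcad cells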;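 further: 0% = median of negative and 100% = median of positive control wells; the first replicate is given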
PABP FP inh: blocks human PABP binding to poly(A) RNA; P11940; fluorescence polarization; inhibition, % at 35 µM; 290,000 tested, 1% active;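 active means 50% or more with normal probe brightness, or confirmed in later tests; inconclusive means above 50% with abnormal brightness, or retests that disagree; inactive means below 50% or failed in later tests; about a fifth of its hits are not listed in these tables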;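 further: calls also rest on retests at 20 µM and on dose response follow-up; controls were probe without protein and protein plus probe with vehicle; some compounds called inactive have numbers as strong as hits; many hits fall short of the cut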
Target sequence (P11940 whole entry, looked up): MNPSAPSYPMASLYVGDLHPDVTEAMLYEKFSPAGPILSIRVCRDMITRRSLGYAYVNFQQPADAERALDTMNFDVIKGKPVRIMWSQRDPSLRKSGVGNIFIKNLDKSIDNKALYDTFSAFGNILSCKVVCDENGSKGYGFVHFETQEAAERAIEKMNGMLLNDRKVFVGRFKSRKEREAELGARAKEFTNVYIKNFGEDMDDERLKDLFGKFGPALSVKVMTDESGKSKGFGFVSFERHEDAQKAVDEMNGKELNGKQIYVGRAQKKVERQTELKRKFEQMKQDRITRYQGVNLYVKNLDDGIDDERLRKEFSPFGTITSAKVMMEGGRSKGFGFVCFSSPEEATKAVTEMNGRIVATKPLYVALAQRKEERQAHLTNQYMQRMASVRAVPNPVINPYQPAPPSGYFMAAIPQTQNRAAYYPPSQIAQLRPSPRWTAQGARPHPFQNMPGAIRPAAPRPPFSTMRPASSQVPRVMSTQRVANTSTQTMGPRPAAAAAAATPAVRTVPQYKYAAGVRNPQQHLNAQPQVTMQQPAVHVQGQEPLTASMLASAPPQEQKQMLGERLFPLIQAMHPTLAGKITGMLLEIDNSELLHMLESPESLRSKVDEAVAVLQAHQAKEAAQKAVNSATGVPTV
eIF4H inh retest: further read-out of eIF4H inh, marked with its call; inhibition, %; compound at 20 µM; confirmation average;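 mean of two retest wells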
PABP FP inh retest: further read-out of PABP FP inh, marked with its call; inhibition, %; compound at 20 µM; confirmation repeats;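 mean of two retest wells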
MT1-MMP act inh RFP: second read-out of MT1-MMP act inh, no call of its own (marks repeat the call); RFP signal change, %; measured here: RFP expression control read;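 0 = vehicle wells; hits needed this value within 50% of zero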
Starred values were filed as active, the others as inactive; i = inactive; ? = inconclusive; nt = not tested or not shown.

Preview, two compounds:
SMILES | Env fusion inh | Rce1 inhib | MT1-MMP act inh | MT1-MMP act inh RFP | UUG fidelity | eIF4H inh | CSC inhib | PABP FP inh | others
CCOc1ccc(N(Cc2cc3cc(OC)ccc3[nH]c2=O)C(=O)C2CCCO2)cc1 (centres undefined) | nt | nt | -3 | 1 | -3 | 7 | 0 | 10
COc1ccc(S(=O)(=O)N2CCCCC2)cc1C(C)C | nt | nt | 1 | 0 | 2 | -6 | 20 | -9

The list itself (from the top)
SMILES | Env fusion inh | Rce1 inhib | MT1-MMP act inh | MT1-MMP act inh RFP | UUG fidelity | eIF4H inh | CSC inhib | PABP FP inh | others
CCOc1ccc(N(Cc2cc3cc(OC)ccc3[nH]c2=O)C(=O)C2CCCO2)cc1 (centres undefined) | nt | nt | -3 | 1 | -3 | 7 | 0 | 10
COc1ccc(S(=O)(=O)N2CCCCC2)cc1C(C)C | nt | nt | 1 | 0 | 2 | -6 | 20 | -9
Cc1ccc(Cc2c(-c3ccc(F)cc3)nc3c(Cl)cc(C(F)(F)F)cn23)cc1 | 7 | nt | -3 | -1 | -19 | nt | nt | nt
Clc1cc(Cl)cc(Nc2ncnc(-n3cccc3)n2)c1 | -3 | i | -4 | -6 | -4 | -3 | 2 | 0
COc1ccc(N2C(=O)CC(N3CCN(S(=O)(=O)c4cc(C)ccc4C)CC3)C2=O)cc1 (centres undefined) | -6 | nt | 3 | 2 | 2 | -8 | -6 | ?
O=C(Cn1nnc(-c2ccc(NC(=O)c3ccccc3F)cc2)n1)NCc1ccc(F)cc1 | 8 | nt | 1 | 3 | -22 | -24 | -10 | -42
O=S(=O)(Cc1ccc(Cl)cc1)c1ccccc1-c1nnc(-c2ccc(Cl)cc2)o1 | nt | i | -2 | -5 | nt | -15 | 1 | -11
O=C(CCCOc1ccc(Cl)cc1Cl)NC(Cc1ccccc1)C(=O)O (centres undefined) | 25 | nt | 1 | 6 | -6 | nt | nt | nt
Cc1ccc(C)c(NC(=O)NNC(=O)c2ccc3ccccc3c2O)c1 | nt | i | 3 | 2 | -21 | -1 | 2 | 2
Cc1cc(C)cc(NC(=S)N2CCN(S(=O)(=O)c3ccccc3)CC2)c1 | 21 | i | -3 | 1 | -6 | 6 | 0 | 0
CCOc1ccc(/C=N/NC(=O)c2ccncc2)cc1OC | -10 | nt | 3 | 5 | -9 | nt | nt | nt
Cc1cccc(Nc2nnc(SC(C)C(=O)NC3CC3)s2)c1 (centres undefined) | -4 | nt | 0 | 1 | -26 | nt | -12 | nt
Cc1ccc2sc(NC(=O)c3cccc(N4C(=O)CCC4=O)c3)nc2c1C | -118 | i | -2 | -3 | -21 | -5 | 0 | -7
CC(Oc1ccccc1)C(=O)N1CCC2(CC1)Oc1ccc(F)cc1C(=O)C21CC(c2cccnc2)=NO1 (centres undefined) | -46 | i | -3 | -6 | -5 | nt | 24 | nt
Cc1nn(C(=O)CNS(=O)(=O)c2ccccc2)c(C)c1Sc1ccc(Cl)cc1 | -19 | i | 1 | -1 | nt | -2 | nt | -10
CC(C)CN(C(=O)COC(=O)C1c2ccccc2Oc2ccccc21)C1CCS(=O)(=O)C1 (centres undefined) | nt | nt | 1 | -1 | nt | -10 | 57 | -6
CC(C)CNC(=O)c1cnn2c(C(F)(F)F)cc(C(F)(F)F)nc12 | 3 | i | -4 | 2 | -11 | -4 | 4 | 4
O=C(CO/N=C/c1ccccc1OC(F)F)NCc1cccs1 | 12 | i | -9 | 5 | -20 | -6 | -12 | -7
CC(C)c1ccc(S(=O)(=O)c2nnn3c2nc(N2CCCCC2)c2ccccc23)cc1 | 15 | i | -5 | -3 | nt | -12 | 22 | -25
CCCCC(CC)C1OCC(CN2CCCCC2)O1 (centres undefined) | -3 | i | 1 | 1 | nt | -6 | 3 | -1
COC(=O)CC1C(=O)NCCN1C(=O)c1ccccc1 (centres undefined) | -204 | i | 5 | 4 | 3 | -3 | -18 | -4
COc1cc2c(cc1OC)CN(C(=S)Nc1c(C)cccc1C)CC2 | 14 | i | 1 | 1 | nt | 6 | -2 | 9
COc1ccc(NC(=O)N(C)C[C@H]2Oc3ccc(NS(=O)(=O)c4ccc(OC)cc4)cc3C(=O)N([C@H](C)CO)C[C@@H]2C)cc1 | -10 | nt | 3 | 5 | -7 | nt | -5 | nt
COc1ccccc1NC(C)C(=O)N/N=C/c1cccs1 (centres undefined) | 10 | i | 1 | 2 | nt | -13 | -6 | -4
CCCCn1c(SCC(=O)NCC2CCCO2)nc2ccc(N3CCOCC3)cc2c1=O (centres undefined) | 7 | i | -3 | -4 | -9 | -9 | 34 | 18
COc1ccc(-c2noc(CCC(=O)NCCc3ccccc3)n2)cc1OC | 19 | i | 2 | 2 | 1 | -18 | 14 | 5
CC(C)[C@H](NC(=O)c1c(F)cccc1F)C(=O)OCC(=O)NC(=O)NC1CCCC1 | nt | i | -3 | 3 | -3 | -3 | -4 | -10
COc1ccc(CC(=O)OCC(=O)NCc2ccco2)cc1 | -2 | nt | 4 | 2 | -6 | nt | -13 | nt
O=C(CNS(=O)(=O)c1ccc(Br)cc1)N1CCN(Cc2ccccc2)CC1 | -8 | nt | 0 | 1 | -7 | 49 | 2 | 16
COc1ccc(C2/C(=C(\O)c3ccc4c(c3)OCCO4)C(=O)C(=O)N2CCCN(C)C)cc1 (centres undefined) | nt | i | -5 | 2 | 2 | 1 | -14 | 5
COc1ccc(N2CCN(Cc3nc4ccccc4c(=O)[nH]3)CC2)cc1 | -34 | i | -6 | 2 | 8 | -6 | -5 | -9
Cn1c(=O)c2[nH]c(CCCCCc3nc4ccccc4[nH]3)nc2n(C)c1=O | -182 | nt | 3 | 2 | -9 | nt | nt | nt
Cc1c(NC(=O)COC(=O)C23CC4CC(CC(O)(C4)C2)C3)c(=O)n(-c2ccccc2)n1C | 20 | i | -1 | 4 | nt | 1 | 7 | -8
Cc1c(Cl)cccc1NC(=O)COc1ccc(S(=O)(=O)N2CCOCC2)cc1 | -40 | i | -4 | -3 | -11 | 2 | -6 | 2
OC(COC(c1ccc(F)cc1)c1ccc(F)cc1)CN1CCCC(C(F)(F)F)C1 (centres undefined) | 30 | i | 6 | 7 | 3 | 8 | -7 | 17
CC(c1ccc(F)cc1)n1c(-c2ccc3ccccc3n2)n[nH]c1=S (centres undefined) | nt | i | 6 | 0 | -30 | 7 | -9 | 1
Cc1ccc(NCC(=O)N/N=C/c2cc(O)ccc2[N+](=O)[O-])cc1 | -11 | i | -1 | 1 | nt | 49 | -7 | -13
Brc1ccc2ncnc(Nc3cccc4ccccc34)c2c1 | nt | i | -5 | -11 | -14 | -6 | 40 | -1
O=C(Oc1ccc(C(=S)N2CCOCC2)cc1Br)c1cc(Cl)ccc1Cl | -42 | i | -1 | 6 | -18 | -8 | -3 | 2
CCN1C(=O)[C@@H]2[C@@H](c3ccc(-c4ccc(OC)cc4)c(OC)c3)N3CCCC[C@@]3(C(=O)OC)[C@@H]2C1=O | 17 | nt | -12 | -8 | -36 | nt | -1 | nt
Cc1ccc(NC(=O)c2ccc(OC(F)F)cc2)cc1S(=O)(=O)N(C)C | 15 | i | -3 | -15 | 3 | -4 | -2 | -6
CCN(CC)c1ccc(/C=N/NC(=O)c2c(Cl)c(C)nn2C)cc1 | 1 | i | 4 | 3 | -8 | 2 | 4 | 2
CCn1c2ccccc2c2cc(CN3CCN(C(=O)c4ccco4)CC3)ccc21 | nt | i | -1 | -3 | -2 | 2 | -12 | 4
Cc1ccc(NC(=O)c2ccc(NC(=O)c3ccccc3)cc2)cc1C | -30 | i | 6 | 2 | -2 | -12 | -10 | 6
COc1ccc(C(=O)NCCn2ccc3ccccc32)cc1 | nt | nt | 6 | 3 | -28 | 5 | -4 | -2
Cc1ccc(/C=N/NC(=O)CSc2ccccn2)o1 | -24 | i | 18 | 2 | nt | -3 | -4 | 10
C=CCSc1nnc(NC(=O)CSc2ccccn2)s1 | nt | nt | nt | nt | nt | -2 | -3 | 7
CCOC(=O)N1CCN(S(=O)(=O)c2ccc(C(=O)N(CCCN(C)C)c3nc4cc(OC)ccc4s3)cc2)CC1 | -16 | i | -2 | -4 | 12 | nt | -2 | nt
c1ccc(-c2cc(-c3ccccc3)ncn2)cc1 | -26 | i | 2 | 1 | -8 | nt | 0 | nt
COc1cccc(C(=O)Nc2nc(-c3ccc(S(=O)(=O)N4CCOCC4)cc3)cs2)c1 | nt | i | -3 | -24 | -14 | 2 | 29 | -1
COc1cc(C(=O)N2CCC(NC(=O)C(Cc3ccccc3)NC(C)=O)CC2)cc(OC)c1OC (centres undefined) | -25 | i | 6 | 1 | nt | 2 | 2 | -7
OCCC1CN(Cc2ccon2)CCN1Cc1ccccc1 (centres undefined) | -13 | i | -2 | 4 | -13 | -1 | 4 | -1
Cc1ccc2nc(NC(=O)c3ccc(OCC4CCCO4)cc3)sc2c1 (centres undefined) | 18 | i | -7 | -31 | nt | -3 | -13 | 39
CCOC(=O)c1cc2occc2n1CC(=O)NC1CCCCC1C (centres undefined) | -7 | i | 0 | 3 | -13 | 11 | nt | -11
CCCCN(CCCC)C(=O)C[n+]1cccc(/C=N/O)c1 | -12 | i | 1 | 3 | 0 | 0 | -3 | -7
O=C(NCC(=O)N(Cc1ccco1)C(C(=O)NC1CCCCC1)c1ccncc1)c1cccs1 (centres undefined) | 1 | i | -2 | -1 | -19 | 15 | nt | 2
O=S(=O)(Nc1cc(C(F)(F)F)ccc1N1CCOCC1)c1ccccc1 | 11 | i | -4 | -4 | nt | -9 | -12 | -2
Cc1[nH]c2ccccc2c1C(Nc1nccs1)c1ccncc1 (centres undefined) | 5 | i | -1 | 3 | -18 | -2 | nt | 10
CN(C(=O)c1ccc([N+](=O)[O-])cc1)c1ccccc1C(=O)NCc1ccccc1 | -13 | i | -6 | 4 | -3 | -13 | -16 | -2
CC(=O)Nc1ccc(N2CCCC2)cc1 | nt | i | -4 | 2 | nt | 48 | nt | 35
(next part)
SMILES | Env fusion inh | Rce1 inhib | MT1-MMP act inh | MT1-MMP act inh RFP | UUG fidelity | eIF4H inh | CSC inhib | PABP FP inh | others
COc1cc(OC)c(NC(=O)/C=C/C(=O)O)cc1Cl | -3 | i | 5 | 6 | -14 | 5 | 6 | 15
C/C(Cn1cnc([N+](=O)[O-])n1)=N\NC(=O)c1ccncc1 | -4 | i | 2 | 3 | nt | -1 | -1 | -5
Cc1c(NC(=O)CN2c3ccccc3CC2C)c(=O)n(-c2ccccc2)n1C (centres undefined) | -1 | i | -7 | 1 | nt | -3 | -5 | 0
O=C1CCC(=O)N1CCSC(=S)N1CCSCC1 | -20 | i | 4 | 7 | nt | -1 | -15 | 2
N/C(=N\OCc1ccc([N+](=O)[O-])cc1)c1ccncc1 | -13 | i | -2 | 1 | nt | -6 | 2 | -2
O=C(COc1ccccc1)c1cn(CC(=O)N2CCOCC2)c2ccccc12 | nt | i | -7 | 0 | -5 | 95* | -17 | 107*
CC(=O)Nc1ccc(C(C#N)=Cc2ccc(N(C)CCC#N)cc2)cc1 | 7 | nt | -20 | -4 | -14 | nt | nt | nt
CCCCn1c(/C=C/c2ccco2)nc2ccccc21 | 1 | i | -4 | 2 | -37 | 52* | 17 | 2.2* | eIF4H inh retest=102*;PABP FP inh retest=90*
